gsp ag – agonists of gsp mutant (McCune-Albright syndrome); gsp mutant cells, cAMP HTRF, 30 min; control for the full effect not named in the record; Potency, µM (doses to about 76.9 µM), for inactives: at the highest dose activation (cAMP increase), most hits filed as activators; actives 0.13% (n = 340,000); active = well fitted activation curve with a large enough effect; inconclusive = small, poorly fitted or top-dose-only effect, or another doubt; inactive = no such curve, though single readings can be large or run the other way; cell line not stated here;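 note: phosphodiesterase inhibitor Ro 20-1724 added with compounds to block cAMP breakdown; potency is the fitted concentration of half-maximal effect; nearly all actives have a fitted effect of over 60% in size; about a fifth of the inactives were tested at one dose only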
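Cells stably selected in G418 were plated at 2000/well, grown 16-24 hr, then given compounds in DMSO with the PDE inhibitor […] (300 uM solution added) for 30 min at 37C; cAMP was read by HTRF.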
PINK1 expr mod – modulators of PINK1 expression; PINK1 immunofluorescence, high-content cytometry, 24 h; Potency, µM (titrated, usually from 76.6 µM), for the others: at the highest dose activation (PINK1 increase), actives largely listed as activators; actives 0.2% (n = 410,000); active = well fitted activation curve with a large enough effect; inconclusive = small, poorly fitted or top-dose-only effect; inactive = flat fitted curve, though single readings scatter; cell line not stated here;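 note: potency is the fitted concentration of half-maximal effect; % of control where 0% means no effect; nearly all actives have a fitted effect of over 65% in size; a mitochondrial uncoupler was the plate control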
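PINK1 protein level read as immunofluorescence by microplate cytometer in a fixed, stained stable cell line after 24 h exposure to five compound concentrations, with CCCP as control.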
ClpP mod – qHTS Assay for Activators of ClpP; purified B. subtilis ClpP, FRET peptide cleavage, 20 min; Potency, µM (series often up to 57.5 µM), for inactives: at the highest dose activity change, negative = active; AID 651965, 2013; actives 1.9% (n = 340,000); ATP-dependent Clp protease proteolytic subunit (Bacillus subtilis (strain 168)), P80244; active = well fitted falling curve with a large enough effect; inconclusive = small, poorly fitted or top-dose-only effect; inactive = no such curve, though single readings can be large or run the other way; note: potency is the fitted concentration of half-maximal effect; the source files actives as falling curves though it sought activators and does not explain the sign; nearly all actives have a fitted effect of over 65% in size; many hits overshoot -100%
Target sequence (P80244 whole entry, looked up): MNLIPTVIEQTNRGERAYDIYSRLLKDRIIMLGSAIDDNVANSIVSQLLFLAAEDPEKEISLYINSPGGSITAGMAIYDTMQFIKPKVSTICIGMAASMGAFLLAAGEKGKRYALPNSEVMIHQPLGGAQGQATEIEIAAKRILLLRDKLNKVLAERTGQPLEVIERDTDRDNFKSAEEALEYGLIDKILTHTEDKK
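ClpP 10 microg/mL final, pH 8 Tris/KCl buffer with BSA, glycerol, Tween-20; compound pinned in; FRET-FV substrate; RT 20 min; Ex320/Em430; ΔFRET vs ADEP 5.8 microM, DMSO, no enzyme.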
Menin MLL FP FL – inhibitors of human menin-MLL interaction, wild-type MLL peptide; Fluorescence polarization, fluorescein-MLL peptide displacement from menin; FP activity change, % at 61.4 µM; 290,000 tested, under 10 active; inconclusive = falling polarisation curve, or a change in total fluorescence; inactive = total fluorescence flat and polarisation flat or rising; no compound was filed as active; the % refers to the polarisation; negative = inhibition;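 note: % of control where 0% means no effect; inhibitors lower the polarisation; unlabelled MLL peptide was the positive control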
D2 agonist – agonists of human D2 dopamine receptor (beta-arrestin). activation, % (concentration not given with the values). DiscoveRx PathHunter D2 beta-arrestin, luminescence, 90 min; 100% = 57 uM dopamine signal. actives 0.084% (n = 360,000). AID 624465; in the data active = activation above about 40%; inconclusive = about 15% to 40%; inactive = below about 15%; note: compound concentration not given in the record; the text of the record calls up to 30% inactive
Target sequence (P14416 whole entry, looked up): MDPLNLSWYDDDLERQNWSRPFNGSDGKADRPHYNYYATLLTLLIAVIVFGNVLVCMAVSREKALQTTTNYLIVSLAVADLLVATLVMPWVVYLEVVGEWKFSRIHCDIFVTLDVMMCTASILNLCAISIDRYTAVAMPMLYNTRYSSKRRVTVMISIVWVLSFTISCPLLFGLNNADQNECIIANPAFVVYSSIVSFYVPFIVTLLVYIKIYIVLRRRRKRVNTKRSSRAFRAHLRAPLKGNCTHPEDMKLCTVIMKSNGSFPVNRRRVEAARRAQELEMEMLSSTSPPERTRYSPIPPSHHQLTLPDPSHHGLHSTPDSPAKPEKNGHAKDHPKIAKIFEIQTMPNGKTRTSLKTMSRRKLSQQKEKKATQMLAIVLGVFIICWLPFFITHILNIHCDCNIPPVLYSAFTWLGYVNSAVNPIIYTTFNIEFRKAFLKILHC
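DiscoveRx PathHunter D2 beta-arrestin cells (2,100/well) attached overnight, then compound-stimulated 90 min at 37 C in HBSS/10 mM HEPES/0.1% Tween-20 buffer; beta-galactosidase complementation read by luminescence after 1 h at ambient temperature. Dopamine 57 uM final (EC100) as control.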
gsp antagonist – antagonists of gsp mutant (McCune-Albright syndrome); Potency, µM (highest dose often 76.9 µM), for the others: at the top dose activity change, negative = inhibition, most hits filed as inhibitors; gsp-mutant cells, cAMP HTRF, 30 min; control for the full effect not named in the record; AID 624288; actives 0.4% (n = 340,000); active = falling curve of any shape with a large fitted effect; inconclusive = falling curve, mostly with a smaller effect; inactive = flat or rising curve; cell line not stated here;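 note: intracellular cAMP measured with PDE inhibitor Ro 20-1724 present during compound exposure; potency is the fitted concentration of half-maximal effect; % is set by controls: 0 for no effect and ±100 for the full control effect; nearly all actives have a fitted effect of over 65% in size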
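G418-selected cells were plated in DMEM/10% FBS for 16-24 h at 37C, then treated with compounds plus the PDE inhibitor […] (300 uM solution added) for 30 min at 37C. Intracellular cAMP was measured by HTRF after 30 min lysis at room temperature.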
Sfp PPTase inh – blocks B. subtilis Sfp PPTase activity | Q9F4F7 | Biochemical Sfp PPTase activity, qHTS | Potency, µM, without a hit: max response, negative = inhibition, hits mostly inhibitors | actives 3.5% (n = 310,000) | AID 1490; active = well fitted inhibition curve with a large enough effect; inconclusive = small, poorly fitted or top-dose-only effect, or another doubt; inactive = no such curve, though single readings can be large or run the other way;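 note: the enzyme is Sfp with the accession as filed and its product quenches rhodamine fluorescence; potency is the fitted concentration of half-maximal effect; 0% = enzyme reaction without inhibitor and -100% = no enzyme wells; top concentration of the series not given in the record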
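Fluorescence-quenching assay with 15 nM Sfp, 5 uM rhodamine-CoA and 12.5 uM BHQ-2-labelled ybbR peptide in pH 7.6 Hepes/MgCl2 buffer. Enzyme was pre-incubated with compound for 15 min at room temperature. Rate was taken from the 30-min fluorescence change (525/598 nm).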
An asterisk follows results filed as active; ? = inconclusive; . = not tested or not shown; [ ] = remark or other dose.

Every second line gives: gsp ag	Menin MLL FP FL	PINK1 expr mod	D2 agonist	Sfp PPTase inh	ClpP mod	gsp antagonist
- S=c1[nH]nc(-c2cc3ccccc3o2)n1Cc1ccccc1
    24%	6.0	-2.0%	-5.0	2%	3.2µM*	?
- CC1CN(CCCCOc2ccc3ccccc3c2)CC(C)O1 (stereo not drawn)
    -37%[inhibitor]	-1.6	3.5%	-3.2	-11%	-3.0%	8%
- O=C(O)c1ccc(N=NN2CCOCC2)cc1
    -2%	3.4	1.9%	-0.1	15%	-1.1%	8%
- CCN(CCCCN1C(=O)c2ccccc2C1=O)c1ccc2c(c1)C(=O)N(C)C2=O
    16%	?	5.6%[38.3 µM]	2.2	-9%	1.5%	-20%
- Nc1nnc(SCCOc2ccccc2)s1
    -28%	-0.6	13%[38.3 µM]	-2.3	17%	-2.0%	0%
- CCOC(=O)N1CCN(CC(O)COc2ccc(C(C)C)c(C)c2)CC1 (stereo not drawn)
    2%	-0.9	1.9%	-3.4	1%	2.0%	4%
- N/C(=C\C(=O)c1cc(Cl)ccc1O)C(Cl)(Cl)Cl
    9%	7.2	-1.4%	14	3%	-3.6%	-1%
- N#C/C(=N\O)c1nc2ccccc2[nH]1
    3%	3.5	-0.3%	-1.9	?	-2.7%	7%
- CCOC(=O)C1CCCN(C(=O)c2sc3nc4n(c(=O)c3c2C)CCC4)C1 (stereo not drawn)
    3%	.	2.5%	-1.8	.	-1.1%	5%
- CCc1c(C)c(C#N)c2nc3ccccc3n2c1NCc1ccccn1
    ?	1.9	-1.0%	-0.9	20%	-25%	-23%
- O=c1c(-c2ccc(F)cc2)nc2cnc(Oc3ccccc3)nc2n1Cc1cccs1
    .	3.2	0.1%	.	12%	.	.
- COc1ccc(NC(=O)c2ccc(CN(c3cc(Cl)ccc3C)S(=O)(=O)c3ccccc3)cc2)cc1OC
    -12%	1.6	-1.8%[38.3 µM]	0.4	3%	-18%	-12%
- O=C(NC(=S)Nc1ccc(S(=O)(=O)NC2CCCCC2)cc1)c1cccs1
    16%[15.4 µM]	17	?	-6.5	12%	-2.1%	-28%
- Cc1ccc(S(=O)(=O)N2CCCCC2)cc1NC(=O)COC(=O)c1cccn1C
    -6%	.	-1.2%	-2.8	.	0.5%	-14%
- Cc1ccc2c(c1)[C@H]1[C@H](CO2)[C@H](c2ccccc2)[C@]2(C)C(=O)Nc3ccc(Br)cc3C(=O)N12
    1%	.	3.5%	0.5	.	-2.2%	-15%

(further entries)
Every second line gives: gsp ag	Menin MLL FP FL	PINK1 expr mod	D2 agonist	Sfp PPTase inh	ClpP mod	gsp antagonist
- COc1ccc(-c2ocnc2C(=O)Nc2ccc(N3CCOCC3)cc2N2CCOCC2)cc1OC
    3%[15.4 µM]	.	-0.1%	-2.4	-13%	.	-11%
- C/C(Cn1nnc2ccccc21)=N\OC(=O)c1ccccc1C
    26%	0.6	4.0%	1.9	9%	-1.2%	9%
- COc1ccc(N(CC(=O)Nc2ccccc2C)S(=O)(=O)c2c(C)[nH]c(=O)[nH]c2=O)cc1
    34%	2.3	0.3%	0.9	8%	0.2%	5%
- COc1ccc(-n2cc(-c3ccccc3)nc2SC)cc1
    -22%	-0.5	3.7%	1.7	?	-0.2%	-16%
- CC1(CC(=O)O)SC(=O)NC1=O (stereo not drawn)
    -13%	1.3	-1.6%[38.3 µM]	2.0	-11%	-4.2%	5%
- Cc1cc(C)cc(Oc2coc3cc(OC(=O)c4cccnc4)ccc3c2=O)c1
    -9%[15.4 µM]	5.5	?	-3.5	16%	45%	-5%
- CS(=O)(=O)N(CC(=O)N1CCN(c2ccccc2F)CC1)c1cc(C(F)(F)F)ccc1Cl
    -46%[inhibitor]	0.4	-3.0%[38.3 µM]	0.7	19%	-1.5%	-28%
- O=C(/C=C/c1ccc(S(=O)(=O)N2CCOCC2)cc1)NC(CO)C(O)c1ccc([N+](=O)[O-])cc1 (stereo not drawn)
    14%[15.4 µM]	.	1.3%	-1.4	.	-1.0%	4%
- CCCC(=O)N1CCN(C2=NS(=O)(=O)c3ccccc32)CC1
    13%	1.4	-3.0%[38.3 µM]	-0.3	0%	0.0%	-2%
- O=C(N/N=C/c1cc2c(cc1Br)OCO2)c1ccccn1
    -3%[15.4 µM]	2.0	2.0%	-1.7	-9%	-1.5%	6%
- Cc1ccc2c(c1)-c1cc(C)nn1C(c1sccc1C)N2 (stereo not drawn)
    2%	0.8	3.4%	4.5	-5%	16µM*	-9%
- COCCNC(=S)N/N=C(\C)c1ccc(C)c([N+](=O)[O-])c1
    11%	1.3	-1.0%	2.0	-1%	-1.6%	-6%
- Cc1ccc(Cl)cc1NC(=O)c1cc(NC(=O)C2CCCCC2C(=O)O)ccc1N1CCOCC1 (stereo not drawn)
    -5%	0.4	0.1%	-3.5	19%	-4.0%	-3%
- COc1ccc(NS(=O)(=O)c2cccc(N/C(=N\S(=O)(=O)c3ccccc3)c3ccc(F)cc3)c2)cc1
    -7%	1.1	-3.0%	2.1	11%	-4.7%	-22%
- Clc1ccc2oc(-c3ccccc3)cc(=NCCCN3CCOCC3)c2c1
    11%[15.4 µM]	-0.1	0.0%	-1.8	-24%	.	-30%

(more compounds)
Every second line gives: gsp ag	Menin MLL FP FL	PINK1 expr mod	D2 agonist	Sfp PPTase inh	ClpP mod	gsp antagonist
- Cc1cccc(-c2nnc(SCc3ccc(C#N)cc3)n2Cc2ccco2)c1
    ?	4.8	-6.0%[38.3 µM]	-0.7	-18%	-2.1%	-23%
- COc1ccc(C2=NN(C(=O)CSc3nc(=O)n4cc(C)ccc4n3)C(c3ccc(C)cc3)C2)cc1 (stereo not drawn)
    -41%[inhibitor]	.	-3.3%	6.4	.	-11%	-19%
- COc1ccccc1CNC(=O)c1ccc(Cl)c(NC2=NC3CS(=O)(=O)CC3S2)c1 (stereo not drawn)
    ?	-1.4	-1.0%	-6.5	15%	-0.2%	10%
- CCC(=O)c1cn(CC(=O)Nc2ccccc2F)c2ccccc12
    -1%[15.4 µM]	-9.3	6.6%	-0.4	1%	-5.1%	-4%
- COC(=O)c1cc(NC(=S)NC(=O)c2ccccc2)ccc1N1CCOCC1
    24%	.	0.2%	-2.2	0%	-1.5%	?
- CCc1sc(C(=O)Nc2nc(-c3ccccn3)cs2)cc1C
    -4%	.	-3.2%	-1.8	.	.	-2%
- CN1CCN(C(=O)c2c(NC(=O)c3ccco3)sc3c2CCC(C(C)(C)C)C3)CC1 (stereo not drawn)
    -1%	-1.5	-3.7%	-5.1	-1%	-3.2%	21%
- N#Cc1cc2c(nc1Cl)CCCC2
    -31%	4.3	4.0%	-3.7	-1%	-20%	5%
- Cc1cc(S(=O)(=O)NC2CCCCC2)ccc1OCC(=O)N1CCOCC1
    -24%	3.9	23%[38.3 µM]	-1.3	14%	1.1%	2%
- CN(Cc1ccccc1)S(=O)(=O)c1ccc(OCC(=O)N2CCOCC2)cc1
    -15%	0.1	.	-0.8	9%	0.6%	0%
- COc1cccc(CN2CCN(CCCc3ccccc3)C(CCO)C2)c1OC (stereo not drawn)
    4%	2.0	-0.1%	4.2	10%	.	3%
- COC(=O)C1=C(C)NC(=O)CC1c1cccc(Cl)c1Cl (stereo not drawn)
    21%	-0.1	0.5%	?	15%	0.9%	9%
- O=C(Nc1cccc([N+](=O)[O-])c1)c1ccc2c(c1)OCO2
    -11%	-3.2	6.4%	-2.5	21%	1.2%	4%
- COc1ccc(S(=O)(=O)NC2CCCC2)c(Cl)c1Cl
    -65%[inhibitor]	0.8	1.9%[38.3 µM]	-4.5	4%	-1.4%	11%
- O=C(Nc1nc2ccc(F)cc2s1)C1=COCCO1
    7%	.	0.1%	0.7	.	-14%	-13%

(further entries)
Every second line gives: gsp ag	Menin MLL FP FL	PINK1 expr mod	D2 agonist	Sfp PPTase inh	ClpP mod	gsp antagonist
- CC(NC(=O)[C@H](Cc1c[nH]c2ccccc12)NC(=O)[C@@H]1Cc2ccccc2CN1)c1ccccc1 (stereo partly drawn)
    20%	0.8	1.1%	-1.5	23%	-3.8%	-2%
- CC12CN3CC(=O)N4CC5(C)CN(CC(C)(C4)C5=O)C(=O)CN(C1)CC(C)(C3)C2=O
    -5%	-0.2	16%[38.3 µM]	-1.6	7%	-2.9%	13%
- O=C(CS(=O)(=O)c1ccc(Cl)cc1)NCCS(=O)(=O)c1ccc(Cl)cc1
    0%	-2.3	1.8%	-1.2	21%	.	6%
- O=C(NCCOc1ccc(F)cc1)C1CCC(=O)N(CC2CCCCC2)C1 (stereo not drawn)
    8%	-17	-0.9%	3.1	7%	0.1%	-3%
- S=C1N(c2ccccc2)C(c2ccc(Cl)cc2)N2CCCN12 (stereo not drawn)
    16%	1.2	1.7%	-3.3	21%	0.0%	-26%
- CC(C)=CC(=O)OCC(=O)NC1CCCc2ccccc21 (stereo not drawn)
    -3%[15.4 µM]	-3.2	-2.1%	-6.5	6%	-1.0%	7%
- CCC(C)NC(=O)c1cn(CC)c2ccc(S(=O)(=O)N(C)C)cc2c1=O (stereo not drawn)
    -51%[inhibitor]	0.2	0.4%	0.0	7%	-2.6%	-3%
- CN(C)C(=O)c1cccc(-c2cnc3c(NC=O)cc(-c4cccc(F)c4)cn23)c1
    .	.	1.8%	-0.8	.	?	.

An excerpt of these results, with each value named.
Molecule: CN(C)C(=O)c1cccc(-c2cnc3c(NC=O)cc(-c4cccc(F)c4)cn23)c1
  gsp ag: .	Menin MLL FP FL: .	PINK1 expr mod: 1.8%	D2 agonist: -0.8	Sfp PPTase inh: .	ClpP mod: ?	gsp antagonist: .
Molecule: O=C(NCCOc1ccc(F)cc1)C1CCC(=O)N(CC2CCCCC2)C1 (stereo not drawn)
  gsp ag: 8%	Menin MLL FP FL: -17	PINK1 expr mod: -0.9%	D2 agonist: 3.1	Sfp PPTase inh: 7%	ClpP mod: 0.1%	gsp antagonist: -3%
